High-throughput results deposited in PubChem by Fisher Drug Discovery Resource Center.
NPYLR7 ag – agonists of mosquito NPYLR7 receptor, primary screen, cell-based, Aedes aegypti, calcium fluorescence, mosquito biting behavior; Aedes aegypti neuropeptide Y-like receptor 7 (NPYLR7); HEK293T NPYLR7/Galpha15, GCaMP6s calcium fluorescence; activation, % at 10 µM; hit rate 0.15% among 270,000; in the data active = activation above about 40%;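 also: 0% = vehicle and 100% = reference agonist at the receptor; some compounds past the cut are filed as inactive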
NPYLR7 ag max-min – recorded beside NPYLR7 ag, whose call it bears; activation, %; measured here: Max-Min RFU normalised activation; some inactives read as strong as hits;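 span of the calcium signal over five minutes; 0% = vehicle and 100% = native peptide agonist; compound fluorescence can raise it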
An asterisk follows results filed as active.

SMILES	NPYLR7 ag	NPYLR7 ag max-min
O=C(OC1CCOC1=O)c1c(Cl)ccc(Cl)c1Cl (stereo not given)	18	11
COc1ccc(Cn2cc(C(=O)NCCC3(c4ccccc4)CCOC(C)(C)C3)nn2)cc1 (stereo not given)	2	-2
CN(C)c1ccc(C2=NOC(CN(Cc3cccc(C(F)(F)F)c3)C(=O)c3cccc(F)c3)C2)cc1 (stereo not given)	16	29
CCn1cn[nH]c1=S	-3	-7
O=C(Nc1c[nH]n(-c2ccc(C(F)(F)F)cn2)c1=O)c1ccccc1	1	16
Cc1noc(-c2ccccc2Cl)c1C(=O)NCCCn1ccnc1	4	1
COCCNC(=O)c1cccc(Nc2c(Oc3cccc(OC)c3)cnn(-c3ccccc3Cl)c2=O)c1	10	9
NC(=O)C1CCN(CCOc2ccc(-c3[nH]ncc3-c3ccc(Cl)cc3)c(O)c2)CC1	5	3
COc1cc(C2NC(=O)NC(C)=C2C(=O)OCCOc2ccccc2)ccc1O (stereo not given)	-6	-12
CCc1cc(NCC2(C)CC(C)=NO2)nc(N2CCOCC2)n1 (stereo not given)	4	3
C/C=C/C(=O)Nc1ccccc1-c1cc(OC)c(OC)c(OC)c1	16	1
CCOC(=O)C1(Cc2ccc(Cl)cc2)CCN(C(=O)C2Cc3ccccc3O2)CC1 (stereo not given)	19	4
CCOC(=O)c1nn(-c2ccccc2)c(=O)cc1NCc1ccc(C)cc1	-2	-4
Nc1c(C(=O)Nc2ccccc2C(F)(F)F)c2ccccn2c1C(=O)c1ccccc1	-4	-10
COc1ccccc1CN1CCNC(=O)C1CC(=O)N1CC=CC1 (stereo not given)	1	-2
Cc1[nH]n(-c2ccc(Cl)c(Cl)c2)c(=O)c1C1=C(c2c(C)[nH]c3ccccc23)C(=O)N(c2ccccc2)C1=O	-6	0
CCCCOc1ccccc1C(=O)NNC(=S)NC(=O)c1ccccc1[N+](=O)[O-]	18	12
COc1ccc(C)cc1S(=O)(=O)Nc1ccc(F)cc1	2	-6
CCc1ccc(C2c3c(n(C)c(=O)n(C)c3=O)N=C3COC(=O)C32)cc1 (stereo not given)	-1	-6
O=C1NC(=Nc2ccccc2)S/C1=C\c1ccc(-c2cccc([N+](=O)[O-])c2)o1	-2	-9
CCc1ccccc1N1CC(C(=O)N2CC(=O)Nc3ccccc32)CC1=O (stereo not given)	8	7
O=c1nc(SCc2ccc(C(F)(F)F)cc2)c2c([nH]1)CCCC2	1	0
O=C(CN1CCOCC1)N1N=C(c2cccs2)CC1c1cccs1 (stereo not given)	1	7
BrC1(Br)C2COCOCC21 (stereo not given)	0	-2
O=c1[nH]nc(SCc2noc(-c3ccsc3)n2)n1C1CC1	-1	-1
Cc1cc(C(=O)NCCc2ccccc2)nc2cc(C(C)(C)C)nn12	-11	-5
Cc1cc(C)n(CC(C)N2CCC(n3nccc3NC(=O)c3ccc4c(c3)OCO4)CC2)n1 (stereo not given)	6	0
COc1cc(C(=O)N(C)Cc2cccc(Cl)c2Cl)cc(OC)c1OCC(N)=O	2	1
O=C(NC1CCCCCC1)C1CCC(CNc2c(N3CCOCC3)c(=O)c2=O)CC1 (stereo not given)	-5	-5
COC(=O)CCCNC(=O)NCC1=NC2C(C=NN2c2ccccc2)C(=O)N1 (stereo not given)	-4	-8
CCC#CCN1CCc2c(cnn2-c2ccc(OC)cc2)C1	1	15
COc1ccc(NS(=O)(=O)c2ccc3oc(=S)[nH]c3c2)cc1	4	2
Cc1ccc(-c2nc(SCCn3nc(C)cc3C)n[nH]2)cc1	11	18
O=C(Cc1c(Cl)cccc1Cl)NC(c1cccs1)C1CC1 (stereo not given)	-3	-2
COc1ccccc1NC(=O)C1=C(C)Nc2nc(-c3ccccc3)nn2C1c1ccccn1 (stereo not given)	3	1
COc1ccc(NC(=O)NCCn2ncccc2=O)cc1OC	-8	-14
CN(C)c1ccc(NC(=O)c2ccccc2Cl)cc1CN(CC1CCCO1)C(=O)Cc1cccs1 (stereo not given)	5	16
CCc1oc2ccccc2c1CNCC(O)c1ccc(Cl)cc1 (stereo not given)	-5	630
COCc1nc(C)c(CNC(=O)c2ccccc2N2CCOCC2)s1	10	7
Cc1ccc(F)c(NC(=O)C(c2ccccc2)c2ccccc2)c1	6	1
COc1ccc(-c2cn3c(C(=O)Nc4cccc(C)n4)csc3n2)cc1	-5	-5
CC(CNC(=O)c1cnn(C)c1)Oc1ccccc1Br (stereo not given)	5	0
CCOC(=O)N1CCN(C(=O)c2cc(-c3ccc(F)cc3)nc3cc(C(C)(C)C)nn23)CC1	9	5
CC(C(=O)NCC(F)(F)F)N1CCCCC1CN1CCOCC1 (stereo not given)	7	-7
O=C(NC1CCCN(c2ccccc2)C1)c1ccc2[nH]c(=O)[nH]c2c1 (stereo not given)	3	3
O=C(NC1(C(F)(F)F)C(=O)Nc2c1c(=O)[nH]c(=O)n2Cc1ccccc1)c1ccc(Cl)cc1 (stereo not given)	-6	-15
CN(Cc1ccccc1)C(=O)c1cc2n(n1)CCN(Cc1ccccc1)C2=O	15	4
Cc1cccc(C(C(=O)NCCc2nncn2C)N(C)C)c1 (stereo not given)	-2	-10
Cc1nonc1CNC1CCN(c2ccc(C(=O)N3CCc4ccccc4C3)cc2)CC1	7	5
Cc1nc2ccc(C(=O)N3CCNC(=O)C3)cn2c1N(C)CC1CCCCC1	-6	-9
O=C(NCC1CCCO1)c1cc2c(s1)CS(=O)(=O)C2 (stereo not given)	1	0
CN(C)C(=S)SCC(=O)NC(=O)NC(C)(C)C	-1	-1
COC(=O)C1=NOC2C(=O)N(c3ccccc3)C(=O)C12 (stereo not given)	10	10
CC(C)CN(C)C(=O)C1CCCc2c1ccn2Cc1ccc(Cl)cc1 (stereo not given)	23	12
CC(C)N(C)c1onc(-c2ccccc2)c1CN(CCN1CCOCC1)C(=O)CC(C)(C)C	12	12
O=C1OC(/C=C/c2cccc(Cl)c2Cl)=NC/1=C\c1cccc([N+](=O)[O-])c1	-4	-8
COc1ccc(NC(=O)N2CCN(c3nc(-c4ccco4)nc4cc(Cl)ccc34)CC2)cc1	-2	10
CC(C)CCc1nc(N2CCCN(C(=O)c3cccs3)CC2)c2cnn(-c3cccc(Cl)c3)c2n1	3	14
CC1=CC(C)C2COC(c3ccccc3O)C1C2 (stereo not given)	0	-3
O=C(NCCn1nc(-c2ccco2)ccc1=O)C(c1ccccc1)c1ccccc1	-5	-6

Some of the entries above in another layout.
Results follow in this order: NPYLR7 ag	NPYLR7 ag max-min
O=C(OC1CCOC1=O)c1c(Cl)ccc(Cl)c1Cl (stereo not given)
 : 18	11
COc1ccc(Cn2cc(C(=O)NCCC3(c4ccccc4)CCOC(C)(C)C3)nn2)cc1 (stereo not given)
 : 2	-2
CN(C)c1ccc(C2=NOC(CN(Cc3cccc(C(F)(F)F)c3)C(=O)c3cccc(F)c3)C2)cc1 (stereo not given)
 : 16	29
CCn1cn[nH]c1=S
 : -3	-7
O=C(Nc1c[nH]n(-c2ccc(C(F)(F)F)cn2)c1=O)c1ccccc1
 : 1	16
Cc1noc(-c2ccccc2Cl)c1C(=O)NCCCn1ccnc1
 : 4	1
COCCNC(=O)c1cccc(Nc2c(Oc3cccc(OC)c3)cnn(-c3ccccc3Cl)c2=O)c1
 : 10	9
NC(=O)C1CCN(CCOc2ccc(-c3[nH]ncc3-c3ccc(Cl)cc3)c(O)c2)CC1
 : 5	3
COc1cc(C2NC(=O)NC(C)=C2C(=O)OCCOc2ccccc2)ccc1O (stereo not given)
 : -6	-12
CCc1cc(NCC2(C)CC(C)=NO2)nc(N2CCOCC2)n1 (stereo not given)
 : 4	3
C/C=C/C(=O)Nc1ccccc1-c1cc(OC)c(OC)c(OC)c1
 : 16	1
CCOC(=O)C1(Cc2ccc(Cl)cc2)CCN(C(=O)C2Cc3ccccc3O2)CC1 (stereo not given)
 : 19	4
CCOC(=O)c1nn(-c2ccccc2)c(=O)cc1NCc1ccc(C)cc1
 : -2	-4
Nc1c(C(=O)Nc2ccccc2C(F)(F)F)c2ccccn2c1C(=O)c1ccccc1
 : -4	-10
COc1ccccc1CN1CCNC(=O)C1CC(=O)N1CC=CC1 (stereo not given)
 : 1	-2
Cc1[nH]n(-c2ccc(Cl)c(Cl)c2)c(=O)c1C1=C(c2c(C)[nH]c3ccccc23)C(=O)N(c2ccccc2)C1=O
 : -6	0
CCCCOc1ccccc1C(=O)NNC(=S)NC(=O)c1ccccc1[N+](=O)[O-]
 : 18	12
COc1ccc(C)cc1S(=O)(=O)Nc1ccc(F)cc1
 : 2	-6
CCc1ccc(C2c3c(n(C)c(=O)n(C)c3=O)N=C3COC(=O)C32)cc1 (stereo not given)
 : -1	-6
O=C1NC(=Nc2ccccc2)S/C1=C\c1ccc(-c2cccc([N+](=O)[O-])c2)o1
 : -2	-9
CCc1ccccc1N1CC(C(=O)N2CC(=O)Nc3ccccc32)CC1=O (stereo not given)
 : 8	7
O=c1nc(SCc2ccc(C(F)(F)F)cc2)c2c([nH]1)CCCC2
 : 1	0
O=C(CN1CCOCC1)N1N=C(c2cccs2)CC1c1cccs1 (stereo not given)
 : 1	7
BrC1(Br)C2COCOCC21 (stereo not given)
 : 0	-2
O=c1[nH]nc(SCc2noc(-c3ccsc3)n2)n1C1CC1
 : -1	-1
Cc1cc(C(=O)NCCc2ccccc2)nc2cc(C(C)(C)C)nn12
 : -11	-5

More results follow.
SMILES	NPYLR7 ag	NPYLR7 ag max-min
CCOC(=O)Cc1cc(=O)n2[nH]c(-c3ccc(Br)cc3)cc2n1	7	2
CCNC(=O)N1CCN(c2cc(Oc3ccc(Cl)cc3)ncn2)CC1	-7	4
CCCCNC(=O)C1CCC(Cn2c(=O)c3sccc3n(Cc3ccc(F)cc3)c2=O)CC1 (stereo not given)	2	-9
CC(C)C1c2nc(-c3ccccc3)oc2N=C(N)C1C#N (stereo not given)	-1	-3
COc1ccc(NC(=O)N2CCC3(CC2)C(=O)N(CC(=O)NCc2ccc4c(c2)OCO4)CN3c2ccccc2)c(OC)c1	12	11
COc1cc(C(=O)Oc2coc(CSc3nc(C)cs3)cc2=O)cc(OC)c1OC	-4	-9
COc1cccc(CSc2nnc(CNC(=O)COc3ccc(Cl)cc3)n2-c2ccc([N+](=O)[O-])cc2)c1	26	21
CC1(C)CC[C@@]2(C(=O)O)C(C1)C1=CCC3[C@@]4(C)CC[C@H](O)C(C)(C)C4CC[C@@]3(C)[C@]1(C)C[C@@H]2O (stereo not given in full)	8	1
CCOC(=O)C1(C)CCN1C(=O)c1ccc(SC(F)(F)F)cc1 (stereo not given)	0	-3
CC[C@H]1C[C@@H](NC(C)=O)C[C@@H](c2cccc(Oc3ccccc3)c2)O1	4	4
COCC(C)NC(=O)c1c(C(F)(F)F)nn(C2CCCN(C(C)C)C2)c1C (stereo not given)	-4	-5
BrCC1CSc2nnc(-c3cccnc3)n21 (stereo not given)	0	1
O=C(Nc1ccc(Nc2ccc(-n3cccn3)nn2)cc1)C1CCCC1	-2	-8
CCCN1C(=O)c2ccc(Cl)cc2NC1c1cnc(-c2ccccc2)nc1 (stereo not given)	-1	-2
CN(C(=O)c1ccco1)C(Cc1ccc(F)cc1F)C1CCN(Cc2cc(Cl)ccc2O)CC1 (stereo not given)	3	-4
CNC(=O)CNC(=O)c1cc(-c2ccc(OC)cc2)c(C)s1	11	7
CCOc1ccc(Nc2nc(N)c([N+](=O)[O-])c(NCc3ccco3)n2)cc1	4	4
COc1ccc(-n2ccc3c(cnc4nc5ccccc5n43)c2=O)cc1	5	8
CCC(=O)N(Cc1csc(COc2cccc(C)c2C)n1)C(C)CC (stereo not given)	12	20
CCc1ccsc1C(=O)N(C)C(C)CC#N (stereo not given)	11	5
COc1ccccc1C(=O)N(Cc1c(-c2ccccc2)noc1N1CCSCC1)C1CC1	7	12
COc1cc(Br)c(S(=O)(=O)Nc2ccc(Cl)c(O[C@@H]3CCN(C)C3)c2)cc1OC	-5	-8
CNC(=O)[C@@H]1C[C@@H](N)CN1Cc1c(C)nn(C)c1Oc1ccc(Cl)cc1	-1	-1
Cc1ncc(C[n+]2csc(C)c2C)c(N)n1	-5	-2
Cc1cc(C)n(CC(C)NC(=O)c2ccc(-n3cnnn3)cc2)n1 (stereo not given)	1	-1
O=c1c2c3c(sc2[nH]c(=S)n1Cc1ccccc1)CCCC3	-7	-10
CC(C)(C)c1ccc(NC(=O)/C=C/c2ccc3c(c2)OCO3)cc1	-8	-15
CC(=NNC(=O)c1ccoc1C)c1ccc2c(c1)Nc1ccccc1S2	-3	-11

Compound profiles, as listed above. Values in the order: NPYLR7 ag, NPYLR7 ag max-min
Entry for Cc1cc(C)n(CC(C)NC(=O)c2ccc(-n3cnnn3)cc2)n1 (stereo not given) = 1, -1
Entry for CC(C)(C)c1ccc(NC(=O)/C=C/c2ccc3c(c2)OCO3)cc1 = -8, -15
Entry for CC(=NNC(=O)c1ccoc1C)c1ccc2c(c1)Nc1ccccc1S2 = -3, -11

This is a subset; the hit share may differ from the screen's.
